ALR H2O2 inh = blocks human ALR sulfhydryl oxidase activity; P55789; 290,000 tested, 3.8% active; purified ALR, DTT oxidation, H2O2 HRP-luminol luminescence; inhibition, % (concentration not given with the values); AID 485317;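 active = mean and each replicate at 75% or more; inconclusive = only one of the two met; inactive = neither met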;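 also: stock transfer was 7.5 nL into about 7.5 µL; 0% = neutral wells and 100% = wells with inactivated enzyme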
Target sequence (P55789 whole entry, looked up): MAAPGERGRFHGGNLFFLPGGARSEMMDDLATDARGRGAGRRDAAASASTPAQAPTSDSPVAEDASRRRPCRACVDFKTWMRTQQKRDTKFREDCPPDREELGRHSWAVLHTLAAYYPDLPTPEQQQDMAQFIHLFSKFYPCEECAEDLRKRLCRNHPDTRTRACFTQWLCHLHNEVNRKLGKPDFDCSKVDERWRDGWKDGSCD
FGF22 binding = shifts melting point of recombinant human FGF22 | AID 651658 | recombinant FGF22 thermal shift, SYPRO orange fluorescence; percent of sucrose octasulfate shift, DMSO zero | 340,000 tested, 1.5% active | calls only at 9.99 µM;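 active = melting point raised past a set limit in the mean and every replicate; inconclusive = no clear call; three in four hits are not shown here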
Target sequence (Q9HCT0 whole entry, looked up): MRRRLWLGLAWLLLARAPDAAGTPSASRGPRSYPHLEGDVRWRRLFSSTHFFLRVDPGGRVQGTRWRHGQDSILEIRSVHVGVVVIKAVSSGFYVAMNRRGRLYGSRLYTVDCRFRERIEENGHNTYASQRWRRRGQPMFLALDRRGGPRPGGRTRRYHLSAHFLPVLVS
T cruzi inh = blocks replication of Trypanosoma cruzi | 300,000 tested, 1.4% active | T. cruzi beta-gal in NIH3T3, luminescence, 90 h | AID 1885 | inhibition, % (test concentration not listed);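 active = mean inhibition across valid replicates above about 55%, limit read from the data; inconclusive = mean below that limit but half or more replicates reach it; inactive = mean below it, under half of replicates reach it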;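 also: signal also drops with host cell toxicity which is not excluded here; 0% = plate median of DMSO wells and 100% = zero luminescence signal; higher percent means less beta-gal luminescence so fewer parasites; stock transfer was 50 nL into about 50 µL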
Beta cell apopt = beta cell apoptosis inhibition. INS-1E cytokine-induced death, ATP luminescence, 48 h; percent of positive-control rescue, neutral wells zero. protection from apoptosis, % (concentration not given with the values). 300,000 tested, 0.8% active. AID 435005;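 active = all replicates at 75% or more, or half of them and the mean; inconclusive = half reach 75% but not the mean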;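 also: 0% = cytokine-treated negative control wells and 100% = positive control rescue; higher means more ATP so stronger rescue from cytokine killing; wells of about 40 µL received 100 nL stock; the first replicate is given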
rRNA inh HTS = inhibitors of bacterial rRNA selective over humanized ribosomes. E. coli WT GFP vs humanized-ribosome RFP mutants, fluorescence, 24 h; active compounds read low; DMSO median 0, no signal -100. 350,000 tested, 1.6% active. GFP signal change (wild-type ribosome), % (test concentration not listed);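 active = significant combined selectivity score with lowered wild-type GFP, culture density cut under 30%, mutant RFP and density less affected; inactive = any of these conditions unmet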; also: one replicate is shown; some compounds called inactive have numbers as strong as hits
RanGTP-Imp inh = inhibitors of RanGTP-importin-beta interaction, primary screen, biochemical, FRET, CFP-Ran, YFP-importin-beta, homogeneous. inhibition, % (concentration not given with the values). cell-free CFP-Ran/YFP-importin-beta FRET ratio. AID 2216. 300,000 tested, 1.1% active;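 active = most replicates above 15%; inconclusive = exactly half above 15%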;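 also: 0% = DMSO wells and 100% = Ran loaded with GDP instead of GTP; wells of about 40 µL received 100 nL stock; the first replicate is given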
AF4-AF9 inh = inhibitors of human MLL-AF4/AF9 interaction. P42568. AlphaScreen, biotin-AF4 peptide binding to FLAG-AF9. inhibition, % at 10 µM. 350,000 tested, 0.47% active. AID 651704;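 active = every replicate reaching a set inhibition limit, whatever the replicate mean, cut at about 25% in these data; inconclusive = mean inhibition reaches that limit but some replicates miss it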;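 also: 0% = plate neutral control median and 100% = total signal loss; the record names both 10 and 1 µM as test concentration; the first replicate is given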
Target sequence (P42568 whole entry, looked up): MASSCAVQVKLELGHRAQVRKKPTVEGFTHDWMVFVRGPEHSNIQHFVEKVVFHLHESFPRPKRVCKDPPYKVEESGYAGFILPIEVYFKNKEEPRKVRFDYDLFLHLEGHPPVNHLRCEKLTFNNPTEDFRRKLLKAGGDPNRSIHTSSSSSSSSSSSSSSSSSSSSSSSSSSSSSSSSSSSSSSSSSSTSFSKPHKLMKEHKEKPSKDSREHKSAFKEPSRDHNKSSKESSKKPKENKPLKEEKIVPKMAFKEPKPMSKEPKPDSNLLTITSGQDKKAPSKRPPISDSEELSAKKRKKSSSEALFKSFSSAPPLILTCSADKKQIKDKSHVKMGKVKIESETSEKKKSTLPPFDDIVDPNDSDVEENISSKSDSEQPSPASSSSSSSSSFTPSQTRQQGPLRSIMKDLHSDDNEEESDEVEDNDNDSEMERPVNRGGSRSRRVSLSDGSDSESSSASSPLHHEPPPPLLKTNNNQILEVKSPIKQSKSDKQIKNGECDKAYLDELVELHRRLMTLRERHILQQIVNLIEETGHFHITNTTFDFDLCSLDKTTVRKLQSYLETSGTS
Calb FLC = affects C. albicans growth with fluconazole | C. albicans CaCi-2 (fluconazole-resistant clinical isolate) + fluconazole, Alamar Blue growth, 48 h | growth inhibition, % (concentration not given with the values) | 300,000 tested, 0.57% active;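 active = most replicates above 75%; inconclusive = exactly half above 75%; inactive = most below 75%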;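 also: all wells also contain fluconazole at 8 µg/ml as a sub-toxic cotreatment; 0% = median of DMSO wells and 100% = median of geldanamycin control wells; wells of about 8 µL received 7.5 nL stock; the first replicate is given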
rRNA inh HTS OD600 = further read-out of rRNA inh HTS, marked with its call; OD600 change, %; measured here: OD600 growth;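 optical density of the mix in the first replicate; 0 = DMSO median and -100 = no signal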
rRNA inh HTS RFP = second read-out of rRNA inh HTS, no call of its own (marks repeat the call); RFP signal change, %; measured here: RFP humanized mutant strains;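 first replicate; 0 = DMSO median and -100 = no signal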
Numbers without * were called inactive; i = inactive; ? = inconclusive; / = no result given. These rows are one share of the data, so the mix of outcomes need not match the whole.

molecule	ALR H2O2 inh	FGF22 binding	T cruzi inh	Beta cell apopt	rRNA inh HTS	rRNA inh HTS OD600	rRNA inh HTS RFP	RanGTP-Imp inh	AF4-AF9 inh	Calb FLC
S=c1nc(-c2ccccc2)n(CCCN2CCOCC2)c2c1CCCC2	2	/	3	4	/	/	/	6.3	/	10
COC(=O)Nc1ccc(S(=O)(=O)Nc2ccccc2F)cc1	-8	/	-4	3	/	/	/	-2.9	/	4
COc1ccc(-c2[nH]ncc2CN(C)Cc2cccnc2)c(F)c1	-17	i	11	-18	-5	-1	-2.3	0.5	0.8	-4
CC(=O)N1CCN=C1SCc1cccc(F)c1	97*	i	-6	/	11	4	0.1	2.8	-2.4	6
Cc1cc(C)c(OCC(=O)OCC(=O)N2c3ccccc3CC2C)c(C)c1 (stereo not drawn)	-49	i	-16	-8	-3	-1	2.4	5.5	-1.1	-7
CCCNc1nc(C)cc(-c2cc(-c3ccccc3)on2)n1	2	i	-2	9	2	18	1.6	-0.7	-0.1	0
CCOC(=O)c1c(NC(=O)Cn2nc(C(F)F)cc2C(F)F)sc(C)c1C	-7	/	32	2	/	/	/	1.4	/	-4
CN(C)c1ccc(N=Cc2nc(-c3ccccc3)oc2OC(=O)c2cccc(Br)c2)cc1	64	/	-3	6	/	/	/	?	/	3
CCOc1ccc(NC(=O)COc2ccc3c(c2)CCC3)cc1OC	-6	i	/	2	-8	-1	-5.3	/	-4.1	/
Cc1ccnc(NC(=O)c2ccc3c(c2)NC(=O)C(C)S3)c1 (stereo not drawn)	-2	i	/	-2	10	20	1.1	/	-1.0	/
Cc1ccc(C)c(N2CCN(C(=O)c3ccc(NC4=NC5CS(=O)(=O)CC5S4)cc3)CC2)c1 (stereo not drawn)	-9	i	-14	0	4	-1	-1.2	1.2	1.2	-1
CN(C)c1cc[n+](CC(=O)Nc2ccc(Cl)cc2)cc1	-23	i	-2	-1	14	9	0.8	7.2	-0.4	12
CN(CC(=O)Nc1cccc(F)c1)C(=O)c1ccccc1OCCOc1ccccc1	-7	i	-21	-4	-14	-20	-3.0	4.3	1.1	13
O=C(c1cccs1)N1CCN(c2ncc(Br)cn2)CC1	/	i	-10	/	6	1	-0.9	0.8	/	8
Cc1c(C(=O)NCCSCc2c(Cl)cccc2Cl)cccc1[N+](=O)[O-]	-4	/	6	0	/	/	/	-0.1	/	-20
Cc1ccc(-n2c(C)nc3c(cnn3-c3ccc(F)cc3)c2=O)cc1C	7	/	11	9	/	/	/	-2.5	/	26
CN(C)C(CNC(=S)Nc1cccc(Cl)c1)c1ccccc1 (stereo not drawn)	-15	i	-1	-1	13	-2	-0.2	1.3	4.1	-13
CCOc1ccc(CNS(=O)(=O)c2c(C(=O)N3CCCC3)c(C)n(C)c2C)cc1OC	-8	i	-19	/	1	4	-2.2	2.3	-1.1	0
CCOC(=O)C(C)Oc1cccc2c(=O)n(CC(=O)NCc3ccco3)ccc12 (stereo not drawn)	-20	/	-52	26	/	/	/	1.4	/	4
O=C(NNc1c2ccccc2nc2ccccc12)c1cccc(O)c1	99*	/	-12	/	/	/	/	?	/	41
CCOc1ccc(C2=NNC(c3cccnc3)=Nc3ccc(OC)cc32)cc1	-1	/	-8	-4	/	/	/	4.0	/	8
O=S(=O)(N1CCCCC1)N1CCN(c2ccccc2F)CC1	1	/	-9	7	/	/	/	-0.8	/	-5
COc1ccc(CC(=O)Nc2ccc(-c3nc4cc(C)ccc4o3)c(O)c2)cc1OC	-10	/	-4	16	/	/	/	-1.3	/	-1
OC1CCNC(=S)N1c1ccccc1 (stereo not drawn)	-6	i	-9	-4	5	1	1.8	-3.4	3.9	-10
O=C(NCc1cccnc1)C1CC(c2ccc(F)cc2)=NO1 (stereo not drawn)	28	i	0	0	12	-1	-6.0	-5.7	3.1	-8
COc1ccc(OC)c(C2=NOC(C(=O)N3CCCc4ccccc43)C2)c1 (stereo not drawn)	38	/	4	/	/	/	/	1.7	/	1
CCc1cccc(C)c1NC(=O)N(C)C1CCCCC1	0	i	-17	-4	-4	-1	0.0	5.7	-3.0	-2
COc1cccc(NC(=O)CCc2nc(-c3ccccc3F)no2)c1	-5	/	-21	-2	/	/	/	-1.0	/	-17
CC1(C)OC1COc1c2ccoc2cc2oc(=O)ccc12 (stereo not drawn)	-2	i	-11	10	-4	-28	-5.6	0.4	-10	22
Cc1cc2nn(-c3cccc4ccccc34)nc2cc1NC(=O)c1cccs1	2	/	50	/	-4	-7	-0.3	7.1	/	-5

An excerpt from above, limited to RanGTP-Imp inh and T cruzi inh:
| SMILES | RanGTP-Imp inh | T cruzi inh |
| --- | --- | --- |
| CN(C)C(CNC(=S)Nc1cccc(Cl)c1)c1ccccc1 (stereo not drawn) | 1.3 | -1 |
| CCOc1ccc(CNS(=O)(=O)c2c(C(=O)N3CCCC3)c(C)n(C)c2C)cc1OC | 2.3 | -19 |
| COc1cccc(NC(=O)CCc2nc(-c3ccccc3F)no2)c1 | -1.0 | -21 |
| Cc1cc2nn(-c3cccc4ccccc34)nc2cc1NC(=O)c1cccs1 | 7.1 | 50 |
| CCc1cccc(C)c1NC(=O)N(C)C1CCCCC1 | 5.7 | -17 |

The list goes on:
molecule	ALR H2O2 inh	FGF22 binding	T cruzi inh	Beta cell apopt	rRNA inh HTS	rRNA inh HTS OD600	rRNA inh HTS RFP	RanGTP-Imp inh	AF4-AF9 inh	Calb FLC
C=CCC[C@H](Cc1ccc(F)cc1)C(=O)OC[C@H](Cc1c[nH]c2ccccc12)NC(=O)[C@@H](CC=C)CC(=O)N(CCO)Cc1ccccc1	4	i	/	-7	11	2	-9.2	/	-0.8	/
O=C(CCN1C(=O)/C(=C/c2cccs2)SC1=S)Nc1ccccc1O	-3	i	-5	-1	-3	2	8.0	2.8	-3.8	6
Cc1cc(C)cc(NC(=S)N2CCC(NC(=O)C3CCCCC3)CC2)c1	-9	i	-8	-6	1	5	-1.4	0.4	1.0	-10
COc1ccc(OC)c(C2C(C(=O)c3ccco3)=C(O)C(=O)N2CC2CCCO2)c1 (stereo not drawn)	-13	i	0	-7	0	-3	-0.5	7.7	4.9	1
CN(Cc1ccc(Br)cc1)CC(O)COc1cccc(Br)c1 (stereo not drawn)	-2	i	20	-2	-56	-83	-25	2.6	0.9	4
Cn1c(-c2cnn(-c3ccccc3)c2-n2cccc2)n[nH]c1=S	44	i	-11	5	4	4	-3.0	-5.8	-5.7	11
O=C(NCCCN1CCOCC1)c1csc2c1CCCC2	-8	/	1	-7	/	/	/	?	/	8
Cn1c(=O)c2[nH]c(N=NNc3ccccc3F)nc2n(C)c1=O	98*	/	-3	-2	14	27	0.5	1.7	0.0	-6
COc1ccc(NC(=S)NCCC2=CCCCC2)cc1OC	-9	i	-4	-2	-16	-13	-2.3	-1.5	2.8	6
Cc1ccccc1OCC(=O)Nc1ccc(N2CCN(S(C)(=O)=O)CC2)cc1	/	/	-22	0	/	/	/	-4.2	/	9
CCC(C)NCCOCCOc1ccc(C)cc1Br (stereo not drawn)	-9	/	44	-13	/	/	/	-2.0	/	-20
O=C(NC1CCCC1)C(c1ccc(F)cc1)N(C(=O)c1csnn1)c1ccccc1 (stereo not drawn)	-2	i	-16	2	1	8	0.1	-3.1	-1.3	-2
O=C(c1ccc2c(c1)OCCO2)C1CCN(C(=O)Nc2ccc(F)cc2)CC1	-1	i	7	-5	-4	-35	-4.2	5.4	-1.1	9
COCCn1c(=N)c(S(=O)(=O)c2ccc(F)cc2)cc2c(=O)n3ccccc3nc21	-3	i	23	1	6	2	-4.2	160*	-1.7	1
Cn1c(=O)[nH]c(=O)c2c1nc(N1CCCCC1)n2CCCSc1nnnn1-c1ccccc1	-7	i	-4	5	-10	-24	-11	-1.4	1.0	0

3 structures from above, arranged by molecular weight, ascending:
molecule	ALR H2O2 inh	FGF22 binding	T cruzi inh	Beta cell apopt	rRNA inh HTS	rRNA inh HTS OD600	rRNA inh HTS RFP	RanGTP-Imp inh	AF4-AF9 inh	Calb FLC
O=C(NCCCN1CCOCC1)c1csc2c1CCCC2	-8	/	1	-7	/	/	/	?	/	8
CCC(C)NCCOCCOc1ccc(C)cc1Br (stereo not drawn)	-9	/	44	-13	/	/	/	-2.0	/	-20
O=C(CCN1C(=O)/C(=C/c2cccs2)SC1=S)Nc1ccccc1O	-3	i	-5	-1	-3	2	8.0	2.8	-3.8	6

Compound profiles, from the list above. Order of values: ALR H2O2 inh	FGF22 binding	T cruzi inh	Beta cell apopt	rRNA inh HTS	rRNA inh HTS OD600	rRNA inh HTS RFP	RanGTP-Imp inh	AF4-AF9 inh	Calb FLC
Results for O=C(NCCCN1CCOCC1)c1csc2c1CCCC2 → -8	/	1	-7	/	/	/	?	/	8
Results for Cn1c(=O)c2[nH]c(N=NNc3ccccc3F)nc2n(C)c1=O → 98*	/	-3	-2	14	27	0.5	1.7	0.0	-6
Results for CN(Cc1ccc(Br)cc1)CC(O)COc1cccc(Br)c1 (stereo not drawn) → -2	i	20	-2	-56	-83	-25	2.6	0.9	4

New compounds follow.
molecule	ALR H2O2 inh	FGF22 binding	T cruzi inh	Beta cell apopt	rRNA inh HTS	rRNA inh HTS OD600	rRNA inh HTS RFP	RanGTP-Imp inh	AF4-AF9 inh	Calb FLC
CCCc1nc(SCC(=O)Nc2nnc(CC)s2)c2c(=O)n(C)c(=O)n(C)c2n1	0	i	-34	19	10	11	-1.9	6.5	0.0	1
O=C(NCc1cccc(C(F)(F)F)c1)C1CCCN(c2cnccn2)C1 (stereo not drawn)	-7	i	7	8	6	5	0.6	1.2	4.2	3
O=C(Nc1ccnn1C1CCN(C(=O)c2ccc(Cl)cc2)CC1)C1CC1	-4	i	-11	-8	2	0	0.8	1.2	1.0	-1
O=C(CCN1C(=O)c2ccccc2S1(=O)=O)Nc1ccc(Cl)cc1	-20	i	7	-5	13	24	4.5	3.9	-1.3	17
O=C(CSc1ccc(-c2ccc(F)cc2)nn1)N1CCOCC1	-1	i	-4	-3	14	10	1.0	3.1	1.9	1
CCOC(=O)C1CCN(C(=S)Nc2ccc(CC)cc2)CC1	-3	i	-9	-8	-11	-3	-0.4	-0.9	-0.9	-3
COc1ccc(OC)c(NC(=O)CN2C(=O)COc3ccc(C)cc32)c1	/	i	-10	-2	-1	-3	-1.1	3.3	6.5	-4
O=C(c1ccc(Cl)cc1)N1CCCC(C(=O)N2CCCCC2)C1 (stereo not drawn)	2	i	-1	1	4	2	-1.1	-0.1	0.0	1
Fc1ccc(CSc2nc3ncccc3[nH]2)cc1	1	/	4	-7	/	/	/	?	/	-7
COc1ccc(C)cc1NC(=O)C(OC(=O)c1cccc(S(=O)(=O)N(C)c2ccccc2)c1)c1ccccc1 (stereo not drawn)	-1	/	11	/	/	/	/	-4.6	/	-9
Cn1c(C(=O)NCCCN2CCCCC2)cc2sccc21	30	/	5	-7	/	/	/	?	/	-22

From PubChem BioAssay
